# Screening data from PubChem BioAssay.
# T cruzi repl: T. cruzi replication inhibition; T. cruzi beta-gal in NIH3T3, luminescence, 90 h; inhibition, % (no concentration beside the values); 300,000 compounds, 1.4% hits; AID 1885;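 active = mean inhibition across valid replicates above about 55%, limit read from the data; inconclusive = mean below that limit but half or more replicates reach it; inactive = mean below it, under half of replicates reach it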;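 note: signal also drops with host cell toxicity which is not excluded here; 0% = plate median of DMSO wells and 100% = zero luminescence signal; higher percent means less beta-gal luminescence so fewer parasites; stock transfer was 50 nL into about 50 µL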
# FGF22 binding: shifts melting point of recombinant human FGF22; Q9HCT0; calls only at 9.99 µM; recombinant FGF22 thermal shift, SYPRO orange fluorescence; percent of sucrose octasulfate shift, DMSO zero; 340,000 compounds, 1.5% hits;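 active = melting point raised past a set limit in the mean and every replicate; inconclusive = no clear call; three in four hits are not shown here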
# Target sequence (Q9HCT0 whole entry, looked up): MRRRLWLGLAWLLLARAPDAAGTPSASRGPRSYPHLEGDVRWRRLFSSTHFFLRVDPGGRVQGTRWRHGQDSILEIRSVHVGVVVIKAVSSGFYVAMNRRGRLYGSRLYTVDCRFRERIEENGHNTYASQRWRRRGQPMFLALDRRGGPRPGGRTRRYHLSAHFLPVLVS
# Beta apoptosis: beta cell apoptosis inhibition. protection from apoptosis, % (test concentration not listed). INS-1E cytokine-induced death, ATP luminescence, 48 h; percent of positive-control rescue, neutral wells zero. 300,000 compounds, 0.8% hits;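 active = all replicates at 75% or more, or half of them and the mean; inconclusive = half reach 75% but not the mean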;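 note: 0% = cytokine-treated negative control wells and 100% = positive control rescue; higher means more ATP so stronger rescue from cytokine killing; wells of about 40 µL received 100 nL stock; the first replicate is given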
# AF4-AF9 inh: inhibitors of human MLL-AF4/AF9 interaction; P42568; AlphaScreen, biotin-AF4 peptide binding to FLAG-AF9; inhibition, % at 10 µM; 350,000 compounds, 0.47% hits;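 active = every replicate reaching a set inhibition limit, whatever the replicate mean, cut at about 25% in these data; inconclusive = mean inhibition reaches that limit but some replicates miss it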;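 note: 0% = plate neutral control median and 100% = total signal loss; the record names both 10 and 1 µM as test concentration; the first replicate is given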
# Target sequence (P42568 whole entry, looked up): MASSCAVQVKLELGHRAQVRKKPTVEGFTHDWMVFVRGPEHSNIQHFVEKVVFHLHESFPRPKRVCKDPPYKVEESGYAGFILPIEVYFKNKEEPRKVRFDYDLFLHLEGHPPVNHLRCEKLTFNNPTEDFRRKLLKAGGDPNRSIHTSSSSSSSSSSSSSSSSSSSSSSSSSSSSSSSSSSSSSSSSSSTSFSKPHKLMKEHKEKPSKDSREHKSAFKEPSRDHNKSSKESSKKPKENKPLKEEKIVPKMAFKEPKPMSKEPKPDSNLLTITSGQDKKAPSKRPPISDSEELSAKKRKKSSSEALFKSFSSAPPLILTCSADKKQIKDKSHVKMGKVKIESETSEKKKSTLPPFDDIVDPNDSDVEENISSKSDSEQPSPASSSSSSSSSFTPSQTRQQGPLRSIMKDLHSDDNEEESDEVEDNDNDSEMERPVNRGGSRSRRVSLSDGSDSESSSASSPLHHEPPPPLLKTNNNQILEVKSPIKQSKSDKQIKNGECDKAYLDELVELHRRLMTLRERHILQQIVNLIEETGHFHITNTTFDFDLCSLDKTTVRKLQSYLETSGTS
# rRNA inh HTS: inhibits bacterial ribosomal RNA function over humanized ribosomes; GFP signal change (wild-type ribosome), % (no concentration beside the values); 350,000 compounds, 1.6% hits; E. coli WT GFP vs humanized-ribosome RFP mutants, fluorescence, 24 h; hits give low values; DMSO median 0, no signal -100;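 active = significant combined selectivity score with lowered wild-type GFP, culture density cut under 30%, mutant RFP and density less affected; inactive = any of these conditions unmet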; note: one replicate is shown; some compounds called inactive have numbers as strong as hits
# ALR H2O2 inh: inhibitors of human sulfhydryl oxidase ALR. 290,000 compounds, 3.8% hits. inhibition, % (concentration not given with the values). purified ALR, DTT oxidation, H2O2 HRP-luminol luminescence. AID 485317. P55789;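 active = mean and each replicate at 75% or more; inconclusive = only one of the two met; inactive = neither met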;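 note: stock transfer was 7.5 nL into about 7.5 µL; 0% = neutral wells and 100% = wells with inactivated enzyme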
# Target sequence (P55789 whole entry, looked up): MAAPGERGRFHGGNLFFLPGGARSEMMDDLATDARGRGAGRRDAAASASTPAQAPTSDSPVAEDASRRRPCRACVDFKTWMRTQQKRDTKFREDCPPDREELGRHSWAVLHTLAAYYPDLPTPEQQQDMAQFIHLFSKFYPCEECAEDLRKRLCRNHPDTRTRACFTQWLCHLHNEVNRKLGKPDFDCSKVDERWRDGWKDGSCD
# Calb FLC: affects C. albicans growth with fluconazole; 300,000 compounds, 0.57% hits; growth inhibition, % (concentration not given with the values); AID 1979; C. albicans CaCi-2 (fluconazole-resistant clinical isolate) + fluconazole, Alamar Blue growth, 48 h;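 active = most replicates above 75%; inconclusive = exactly half above 75%; inactive = most below 75%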;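 note: all wells also contain fluconazole at 8 µg/ml as a sub-toxic cotreatment; 0% = median of DMSO wells and 100% = median of geldanamycin control wells; wells of about 8 µL received 7.5 nL stock; the first replicate is given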
# RanGTP-Impb inh: disruptors of Ran-importin-beta complex formation – biochemical, FRET, CFP-Ran, YFP-importin-beta, homogeneous, primary screen. cell-free CFP-Ran/YFP-importin-beta FRET ratio. inhibition, % (no concentration beside the values). 300,000 compounds, 1.1% hits. AID 2216;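 active = most replicates above 15%; inconclusive = exactly half above 15%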;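 note: 0% = DMSO wells and 100% = Ran loaded with GDP instead of GTP; wells of about 40 µL received 100 nL stock; the first replicate is given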
# rRNA inh HTS OD600: also measured in rRNA inh HTS; calls as there; OD600 change, %; measured here: OD600 growth;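 optical density of the mix in the first replicate; 0 = DMSO median and -100 = no signal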
# rRNA inh HTS RFP: also measured in rRNA inh HTS; calls as there; RFP signal change, %; measured here: RFP humanized mutant strains;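 first replicate; 0 = DMSO median and -100 = no signal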
# Numbers without * were called inactive; i = inactive; u = inconclusive; x = not tested or not shown. Some of the compounds tested, so the mix of outcomes need not match the whole.
SMILES,T cruzi repl,FGF22 binding,Beta apoptosis,AF4-AF9 inh,rRNA inh HTS,rRNA inh HTS OD600,rRNA inh HTS RFP,ALR H2O2 inh,Calb FLC,RanGTP-Impb inh
COc1ccc(OCC(=O)N/N=C/c2ccc(OC)c(OC)c2C(=O)O)cc1,-2.8,x,-12.1,x,x,x,x,-4.2,0.1,2.4
CCCCOC(=O)CNc1nnc(SCC(=O)OCC)[nH]c1=O,-4.5,x,-1.8,x,x,x,x,100.2*,6.0,1.0
Cc1ccccc1N=C1NN=C(c2ccccc2F)CS1,25.7,i,58.7,2.7,-0.3,-6.7,-2.9,-12.5,-11.0,-4.9
C1CCN(c2c3c(nc4nnnn24)CCCC3)CC1,-11.3,x,4.0,x,x,x,x,3.7,2.5,0.0
O=C(NS(=O)(=O)Nc1ccc(Cl)cc1)c1c[nH]c2ccccc12,1.5,i,-5.4,1.0,7.1,9.4,3.4,-4.8,-29.9,-1.6
O=C(c1cc2c(ccc3ccccc32)oc1=O)N1CCN(CCO)CC1,-1.8,i,-1.7,-5.2,1.8,5.2,-1.4,x,-3.0,7.5
O=C(Cc1ccc(F)cc1)Nc1nccs1,-4.1,i,-7.6,-1.3,4.1,5.5,-2.7,-3.8,-7.3,5.6
CCN1c2ccccc2-c2nc3ccccc3n2C1c1ccccn1 (stereo not drawn),-23.7,x,-5.2,x,x,x,x,-7.6,-5.9,7.6
COc1ccc(C(=O)NNC(=O)C(=O)Nc2cccc3ccccc23)cc1,6.8,i,4.6,9.6,-22.2,-38.2,-3.4,0.3,-0.1,3.2
Cc1cc(=O)oc2c(CN3CCCC3)c(O)c(Cl)cc12,-12.3,i,-4.6,-6.4,1.7,2.8,0.7,5.4,-7.8,6.5
CCCCNC(=O)c1ccc(CNS(=O)(=O)c2ccc(Br)cc2)cc1,6.5,i,3.9,-1.1,-1.3,4.4,0.1,-0.2,2.8,-0.3
CCN(CC)S(=O)(=O)c1ccc(N=NC2=C(O)CC(C)(C)CC2=O)cc1,-0.5,x,-11.9,x,x,x,x,-9.6,-4.4,-6.8
Cc1cccc(NC(=O)c2c([N+](=O)[O-])cnn2C)c1,-19.7,i,2.2,3.4,8.7,2.3,2.1,2.7,3.1,0.8
CC(=O)c1c(COC(=O)c2ccc(C)cc2)nc2ccccc2[n+]1[O-],3.7,i,-3.2,0.8,14.7,10.1,-0.7,1.3,-3.6,-0.7
CCOC(=O)c1sc(=NC(=O)c2cccc(C)c2)n(C)c1C,23.1,i,-2.5,-1.1,7.1,4.6,-1.2,23.9,4.7,1.3
CC(CNS(=O)(=O)c1ccc2c(c1)NC(=O)CCS2)c1ccccc1 (stereo not drawn),0.3,i,-2.2,-19.3,-7.0,-10.0,3.5,-22.1,0.5,-0.3
Fc1ccc(-[n+]2nc(Nc3ccccc3)sc2-c2cccc(Cl)c2Cl)cc1,22.2,i,-3.7,-4.0,2.7,-12.8,-4.5,-0.9,-16.6,-3.5
COCCSc1ccccc1C(=O)N1CCN(Cc2ccc3c(c2)OCO3)CC1,-4.9,x,2.6,x,5.4,3.1,-0.8,-3.7,-27.7,0.0
Cc1ccccc1C(=O)NC1CCN(C(=O)N(c2ccccc2)c2ccccc2)CC1,-0.7,x,2.2,x,x,x,x,86.0*,-1.1,-1.1
C=CCN(CC=C)c1ccc(N2C(=O)C3CCCCC3C2=O)cc1[N+](=O)[O-] (stereo not drawn),-0.8,i,8.4,-7.3,-14.1,-6.6,4.4,-3.1,-8.3,0.1
O=c1c2ccccc2nc(-c2cccc(Cl)c2)n1O,-20.5,x,4.9,x,x,x,x,-1.9,u,-1.4
CCOC(=O)C1CCN(C(=O)/C=C/c2ccc(OC)cc2)CC1,-6.6,x,0.5,x,x,x,x,-5.7,12.2,-0.5
CCC(=O)Nc1ccc(NCc2ccc(-c3ccccc3)cc2)cc1,8.9,i,-4.6,-1.2,-4.2,-9.7,-4.6,-14.8,-5.0,-1.8
CC(=O)c1ccc(NC(=O)c2ccccc2-c2ccccc2C(=O)O)cc1,-9.8,i,-4.2,-22.4,2.2,2.8,0.7,3.2,-5.6,3.3
CCn1cnc2c1c(=O)n(CC(=O)OC)c(=O)n2Cc1ccccc1,-5.1,i,-5.9,1.0,1.8,3.5,-1.5,-0.2,5.7,-2.3
COc1ccc(/C=C2/C(=O)N(CC3CCCO3)C(=S)N2C)c(OC)c1 (stereo not drawn),-9.7,x,1.2,x,x,x,x,4.6,-24.3,-0.2
CCOC(=O)CSc1nc(N)c(C#N)c(-c2cccs2)c1C#N,-0.8,x,4.6,x,x,x,x,2.1,11.3,2.1
O=C(NCCS(=O)(=O)NCc1ccccc1Cl)c1ccc2c(c1)OCO2,-5.3,i,0.1,-0.2,-1.3,-3.3,0.1,-1.9,-3.3,-1.1
COc1ccc(S(=O)(=O)N2CCN(C(=O)CC(C)C)CC2)cc1,0.0,i,x,-2.0,-1.0,-1.6,-0.3,-10.6,-1.5,5.8
CCOC(=O)C(Cc1cc(C(C)=O)ccc1OCC)C(=O)OCC,-8.1,x,0.6,x,x,x,x,-8.9,17.1,-5.1
CCC(CO)Oc1cc(NCc2cccc(C(F)(F)F)c2)c2ncn(C(C)C)c2c1 (stereo not drawn),x,i,-4.0,5.2,6.0,10.9,0.4,-3.4,x,x
COC(=O)c1cc(C(=O)OCC(=O)NC(=O)NCc2ccccc2)cc([N+](=O)[O-])c1,x,i,2.8,6.7,-7.4,8.7,3.4,-11.5,x,x
COCc1ccc(C(=O)NC2CCSc3ccccc32)cc1 (stereo not drawn),-2.7,i,-1.4,0.8,12.8,13.7,-0.5,-2.8,-5.2,-2.7
CCc1nnc(NC(=O)c2sc3nc4cc(C)ccc4cc3c2N)s1,-15.1,x,6.5,x,x,x,x,-0.7,19.4,-3.6
COc1cccc(CC2(CO)CCN(Cc3cnc(N4CCOCC4)s3)CC2)c1,36.6,x,-4.5,0.1,12.5,6.0,0.6,-0.5,-10.7,-4.4
CN(CCNC(=O)CCCOc1cc(=O)n(C)c2ccccc12)Cc1ccccc1,34.8,i,6.5,-2.9,13.3,8.8,3.0,-1.9,u,5.8
Cc1onc(-c2c(Cl)cccc2Cl)c1NC(=O)NNc1ccccc1,-5.8,i,8.7,-8.7,4.2,6.3,-0.3,-1.9,-16.7,-0.9
COc1cccc(Nc2nc3ccccc3c(=O)[nH]2)c1,-6.5,i,-10.7,-0.4,-19.4,-18.8,-6.1,-0.8,-35.0,0.0
Cc1ccc(S(=O)(=O)c2cc3c(=O)n4cccc(C)c4nc3n(Cc3ccncc3)c2=N)cc1,11.4,x,-7.6,x,x,x,x,-5.4,5.3,112.4*
Cc1oc(-c2ccoc2)nc1CN(Cc1ccccc1)CC1CC1,-1.1,i,-3.2,-0.8,3.3,2.5,1.5,-0.7,-26.9,-2.4
O=c1c2ccccc2c(-c2ccccc2)nn1-c1ccccc1,16.8,i,1.8,-2.3,20.5,1.9,2.5,-5.6,-3.4,0.7
COC(=O)/C(=N/Nc1ccccc1Cl)Sc1nnc(C(O)c2ccccc2)n1-c1ccccc1 (stereo not drawn),-0.2,x,0.2,-4.3,-3.7,-3.2,0.1,1.6,-10.2,-2.0
O=C(NC(=S)Nc1ccc(Cl)c(C(=O)O)c1)c1ccc(OCc2ccccc2)cc1,-8.7,i,-1.3,-0.2,-16.5,-7.6,-2.4,60.6,-5.8,3.0
CCCN(CCC)Cc1c(C(=O)N/N=C/c2c[nH]c3ccccc23)nnn1-c1nonc1N,4.0,i,5.1,-7.1,0.6,6.4,-0.9,x,u,2.2
COc1cc(C2CC(=O)Oc3c(C(CCN4CCOCC4)c4ccc(N(C)C)cc4)c(OC)cc(OC)c32)cc(OC)c1OC (stereo not drawn),8.0,i,-0.4,40.3*,2.4,3.8,2.2,x,0.4,-1.9
Cc1nc(C)n(CCNS(=O)(=O)c2ccccc2)n1,-7.0,i,-1.5,-3.7,6.3,5.3,-1.1,-5.0,-3.2,-1.1
CC1CC(C)(C)CC2(C1)NC(=O)N(CC(=O)NC1CCCc3ccccc31)C2=O (stereo not drawn),-0.3,i,4.1,-0.7,2.2,6.0,-2.0,1.5,-0.6,-0.7
Cn1c(C(=O)OCC(=O)NCCc2ccccc2)cc2sccc21,-1.1,i,2.9,-4.2,2.8,1.7,1.2,-0.6,3.7,4.1
CC(=O)Nc1ccc(N(C(=O)c2ccco2)C(C(=O)NC2CCCC2)c2ccncc2)cc1 (stereo not drawn),2.5,i,6.7,-5.8,2.0,3.0,3.5,x,-4.5,0.1
CSc1ccc(CN2CCN(S(=O)(=O)Cc3ccccc3)CC2)cc1,11.0,i,6.1,-0.3,10.5,6.5,4.7,x,10.2,1.6
COc1ccc(OC)c(CCNC(=O)C2CCN(c3nnc(-n4cccc4)s3)CC2)c1,13.5,i,0.1,-4.5,-24.8,-36.2,0.5,-5.0,-2.7,-0.1
Nc1ncnc2nc(Sc3ccc(Cl)cc3)[nH]c12,-3.3,x,-21.4,x,x,x,x,-20.8,6.5,2.3
Cc1occc1C(=O)NCc1cccc(CNC(=O)c2ccoc2C)c1,-2.6,x,-7.6,x,x,x,x,x,2.3,6.1
O=C(COC(=O)c1c[nH]c2ccccc12)Nc1ccccc1,x,i,-4.5,-3.6,-4.8,-0.5,2.2,-7.1,x,x
Nc1nccnc1C(=O)OCC(=O)c1ccc[nH]1,-9.2,i,-6.9,-0.4,7.7,13.4,1.9,-11.3,x,1.0
NS(=O)(=O)c1ccc(NC(=O)COC(=O)c2cc(Cl)ccc2[N+](=O)[O-])cc1,-3.2,i,-2.2,1.8,-7.9,-8.1,-1.5,-3.3,-2.7,1.7
CCN(CC)c1ccc(CNc2nc3ccccc3n2CC)cc1,-10.0,i,-1.5,20.4,-9.2,-6.7,-2.4,99.3*,6.7,u
CC(C)c1ccc(NC(=O)[C@@H](C)NC(=O)[C@@H]2Cc3ccccc3CN2)cc1,5.2,i,2.8,-0.8,-1.5,-7.0,-2.2,-5.0,-39.5,-0.6
NC(=O)c1ccsc1NC(=O)COC(=O)CNC(=O)c1ccc(Cl)cc1,x,i,0.3,0.4,14.6,11.9,5.5,-6.3,x,x
COCCNC(=O)C(c1ccc(C)cc1)N(C(=O)CCC(=O)Nc1ccccn1)c1ccc(F)cc1 (stereo not drawn),14.0,i,-2.2,-0.7,3.8,14.6,-1.2,x,-15.4,-0.1
CCCCCCC(=O)N/N=C(\C)Cc1ccccc1,-27.9,i,-1.5,0.6,7.6,5.0,-1.0,-2.5,-28.1,-2.8

# Looked up by structure from the entries so far, 2 records:
SMILES,T cruzi repl,FGF22 binding,Beta apoptosis,AF4-AF9 inh,rRNA inh HTS,rRNA inh HTS OD600,rRNA inh HTS RFP,ALR H2O2 inh,Calb FLC,RanGTP-Impb inh
COC(=O)/C(=N/Nc1ccccc1Cl)Sc1nnc(C(O)c2ccccc2)n1-c1ccccc1 (stereo not drawn),-0.2,x,0.2,-4.3,-3.7,-3.2,0.1,1.6,-10.2,-2.0
CC(=O)Nc1ccc(N(C(=O)c2ccco2)C(C(=O)NC2CCCC2)c2ccncc2)cc1 (stereo not drawn),2.5,i,6.7,-5.8,2.0,3.0,3.5,x,-4.5,0.1
